# High-throughput results (PubChem)
# BJeLR viability = kills HRASV12-expressing BJeLR cells. BJeLR (HRASV12) viability, CellTiter-Glo ATP luminescence, 48 h; reference of the scale not given here. inhibition, % (test concentration not listed). actives 0.17% (n = 300,000). AID 1554;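 active = replicate mean above 50%; inconclusive = above 50% but judged a plate artefact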;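 note: 50 nL library stock added to about 25 µL; numbers are from one replicate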
# RN4220 kill = S. aureus RN4220 growth inhibition; AID 1259311; actives 0.33% (n = 330,000); inhibition, % (concentration not given with the values); OD600, 16 h;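 active = z-score of -3 or lower and OD600 up to 0.18 on both plates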;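 note: plate controls were untreated cells for no effect and reference antibiotic for full effect; stock transfer was 100 nL into about 80 µL; one replicate is shown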
# PrP UTR inh = suppresses PrP 5' UTR mRNA reporter expression; cell-based PrP 5' UTR mRNA reporter, plate reader; actives 0.35% (n = 340,000); inhibition, % (test concentration not listed);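 active = every replicate at 50% or more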;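 note: 0 = median of the neutral control wells; tested in H4 reporter cells; numbers are from one replicate; inactives centre near -14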
# Mtb hypoxia inh = inhibitors of hypoxia-regulated fluorescent reporter in Mycobacterium tuberculosis; M. tuberculosis hypoxia-regulated fluorescent reporter, fluorescence; fluorescence inhibition, % (test concentration not listed); actives 0.1% (n = 300,000); AID 1159583;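 active = 35 to 45% if threefold the growth effect, above 45% if 1.5-fold the growth effect; inactive = the rest, general growth blockers included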;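 note: wells of about 50 µL received 100 nL stock; 0% = vehicle wells and 100% = reference inhibitor wells; whole bacteria with a GFP reporter of the hypoxia response; strong numbers were not always called active; many hits fall short of the cut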
# ugtP null kill = kills S. aureus RN4220 lacking UgtP | actives 0.54% (n = 330,000) | AID 1259309 | growth inhibition, % (test concentration not listed) | S. aureus RN4220 ugtP deletion, OD600 growth, 16 h; some inactives read as strong as hits;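 active = z-score under -3 and OD600 up to 0.15 on both plates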;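 note: plate controls were untreated wells for no effect and antibiotic for full effect; wells of about 80 µL received 100 nL stock; the first replicate is given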
# Autofluor counter = counter-screen for toxin protease inhibitors: compound fluorescence. compound autofluorescence counterscreen, microsphere flow cytometry; active compounds read high. fluorescence intensity (no concentration beside the values). actives 3.1% (n = 360,000);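 active = at least 3 SD above the mean of all compounds, about 16000 in these data; inconclusive = too few beads counted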;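 note: 100 nL of 1 mM stock went into each well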
# Mtb hypoxia inh growth = further read-out of Mtb hypoxia inh, marked with its call; growth inhibition, %; measured here: M. tuberculosis growth (absorbance);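 0% = vehicle and 100% = reference antibiotic; read after six days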
# The depositor's hits bear a star; ? = inconclusive; · = not tested or not shown.
SMILES,BJeLR viability,RN4220 kill,PrP UTR inh,Mtb hypoxia inh,Mtb hypoxia inh growth,ugtP null kill,Autofluor counter
Clc1ccc(-c2nnc(-c3ccccc3)nc2-c2c[nH]c3ccccc23)cc1,-4,1.8,-15,5,-1,-2,4804
CC(=O)N1C(C)(C)CC(=NOC(=O)c2ccccc2)CC1(C)C,-5,3.4,-5,10,-9,6,4366
CCOc1ccc(NN=C(C(=O)OC)C(=O)OC)c([N+](=O)[O-])c1,4,3.5,-14,9,3,10,4337
CCc1ccc(NC(=O)CSc2ccc(-c3ccccn3)nn2)cc1,-14,4.1,2,6,7,18,6293
CC(=O)c1ccc(OCC(O)CN2CCN(CCO)CC2)cc1 (stereo not given),-1,4.4,-8,·,·,11,5507
CCc1n[nH]c(=S)n1/N=C/c1ccc(-c2ccc(Br)cc2)o1,-4,·,-8,·,·,·,3048
CCN1CCN(C(=O)C(C)Oc2ccc(S(=O)(=O)N3CCCC3)cc2C(N)=O)CC1 (stereo not given),·,4.0,-17,8,2,8,3794
CCCOc1ccc(NC(=O)OC2CCN(C)CC2)cc1,-15,4.3,-21,14,8,6,2634
O=[N+]([O-])c1cc(Cl)cc(/C=N\Nc2ccccn2)c1O,30,·,23,·,·,·,2686
CCn1cc(C(=O)O)c(=O)c2cc(F)c(N3CCN(C(=S)Nc4ccccc4OC)CC3)cc21,9,99*,-21,6,-2,99*,3768
Cc1cc(C(=O)Nc2ccc(Cl)cc2)c2ccccc2n1,2,4.5,-11,-1,7,2,3961
CC=C(C)C(=O)NC(C)CN1C2=NCC(C(C)C)N2CC1Cc1ccc(OC)cc1 (stereo not given),·,8.3,·,-3,1,-7,·
CCC(NC(=O)Nc1nccs1)(C(F)(F)F)C(F)(F)F,-12,-12,-2,10,-4,-11,3076
CCn1cc([C@@H]2C[C@H]3CN(Cc4cccc(Cl)c4)C(=O)[C@]34CCCN24)cn1,2,3.0,-38,-7,5,4,5796
CCOc1ccc(NC(=O)CN(c2ccc(OC)c(OC)c2)S(=O)(=O)c2ccc(C)cc2)cc1,-1,0.6,-8,4,-3,2,4081
CC1(NC(=O)NCc2ccco2)CCS(=O)(=O)C1 (stereo not given),-2,5.6,-14,7,1,0,2437
COc1ccc(OC)c(C(=O)NC(CC(N)=O)c2ccc(N3CCN(c4ccc(F)cc4)CC3)c([N+](=O)[O-])c2)c1 (stereo not given),-8,-1.2,-8,12,16,5,3001
COc1cccc(CN2CCC(n3nccc3NC(=O)CCCc3ccccc3)CC2)c1,5,0.8,-40,-1,7,1,?
C[C@H](CO)N1C[C@H](C)[C@@H](CN(C)Cc2ccc(-c3ccccc3)cc2)Oc2c(NC(=O)Cc3ccccc3)cccc2C1=O,·,37,-1,2,7,-7,2851
CCOC(=O)N1CCN(C(=O)c2ccc(NS(C)(=O)=O)cc2)CC1,0,6.3,-11,7,5,7,16339*
COC(=O)C1C(=O)C2=C(CC1C)NC(C)=C(C(=O)OCc1ccc(OC)cc1)C2c1ccc(C)o1 (stereo not given),-3,4.0,-3,3,4,18,3152
COc1cc(/C=N/NC(=O)CSc2cc(C)c(Br)cc2C)ccc1O,1,·,-22,·,·,·,4113
COc1cc(/C=C2\C(=O)N(CCC#N)N=C2C)c(Br)cc1OC(C)C,2,2.2,-20,16,4,1,3681
COCC(=O)Oc1c(Sc2ccccc2[N+](=O)[O-])c(C)nn1C(C)(C)C,2,7.6,-1,14,4,7,3307
COc1ccc(NC(=O)C2C3C=CC4(O3)C2C(=O)N(CCN2CCCCC2C)C4C(=O)NC2CCCCC2)cc1 (stereo not given),3,0.3,-32,0,5,4,4509
CN(C)CCN(C(=O)c1ccc(S(=O)(=O)N(C)c2ccccc2)cc1)c1nc2ccc(Cl)cc2s1,-1,-0.6,-24,7,3,5,5535
Cc1ccc2sc(N(CCCN(C)C)C(=O)c3ccc(S(=O)(=O)N(C)C4CCCCC4)cc3)nc2c1C,3,-4.2,-4,26,13,-17,?
CCNC(=S)N1CCN(CCNC2=CC(=O)CC(C)(C)C2)CC1,6,-1.2,-25,-1,-1,11,2065
C=CCn1c(=NC(=O)C2COc3ccccc3O2)sc2cc(S(N)(=O)=O)ccc21 (stereo not given),-7,·,-11,·,·,·,1907
Cn1c(=O)oc2cc(S(=O)(=O)NCCC(=O)NC3CCCC3)ccc21,4,0.9,·,1,2,3,10749
CCOC(=O)Nc1ccc([N+](=O)[O-])cc1OC,3,-0.6,-10,8,3,-2,3198
CNc1nc(-c2ccc([N+](=O)[O-])cc2)cs1,-4,-2.8,-59,·,·,10,5136
Cc1ccc(NC(=O)Cn2cccc2)c(Br)c1,2,3.2,-9,5,7,-3,23334*
NC(=O)C1CCCN(CC(=O)Nc2cc(S(=O)(=O)N3CCOCC3)ccc2N2CCCC2)C1 (stereo not given),·,1.5,-23,2,2,-1,4102
COc1ccccc1-n1c(-c2ccc(Cl)cc2)c[nH]c1=S,0,7.1,-9,13,3,12,4831
CCOC(=O)c1nn(-c2cc(C(=O)OC)cc(C(=O)OC)c2)cc1O,10,6.8,-18,4,-2,7,10435
O=C(c1ccco1)N(Cc1cccc(Cl)c1)C1CCS(=O)(=O)C1 (stereo not given),7,1.9,8,-3,6,2,5037
O=C(O)c1nn(CCOc2ccc(Cl)cc2Cl)c(=O)c2ccccc12,-12,10,-18,-3,8,-8,5851
Cc1nnc(NC(=O)C2CSC3(C)CCC(=O)N23)s1 (stereo not given),4,4.6,-8,-3,0,2,·
CC(=O)c1cccc(NC(=O)c2cc(=O)[nH]c3ccccc23)c1,2,2.9,-11,-1,7,3,3512
O=C(CSc1nnc(-c2ccccc2Br)o1)N1CCc2ccccc2C1,1,17,-1,-2,-4,-6,8893
O=C(O)CCCn1cc(NC(=O)c2ccco2)cn1,2,3.3,-21,3,11,-7,2494
Cc1cccc(C)c1NC(=O)COC(=O)[C@@H]1CCCN1C(=O)c1cccs1,·,-1.0,-9,-2,11,-1,4256
COc1ccc(N2CCN(C(=O)CN(CCc3ccccc3)S(C)(=O)=O)CC2)cc1,-7,-2.4,-30,-2,7,-3,5666
Cc1cc(C)nc(NC(=O)/C=C/c2ccccc2Cl)n1,-4,3.3,-37,·,·,-16,2461

# Profiles from above. Values in the order: BJeLR viability	RN4220 kill	PrP UTR inh	Mtb hypoxia inh	Mtb hypoxia inh growth	ugtP null kill	Autofluor counter
# `O=C(CSc1nnc(-c2ccccc2Br)o1)N1CCc2ccccc2C1` is listed as 1	17	-1	-2	-4	-6	8893
# `COc1ccc(N2CCN(C(=O)CN(CCc3ccccc3)S(C)(=O)=O)CC2)cc1` is listed as -7	-2.4	-30	-2	7	-3	5666
# `O=C(O)CCCn1cc(NC(=O)c2ccco2)cn1` is listed as 2	3.3	-21	3	11	-7	2494
# `O=C(c1ccco1)N(Cc1cccc(Cl)c1)C1CCS(=O)(=O)C1` (stereo not given) is listed as 7	1.9	8	-3	6	2	5037

# The list goes on:
SMILES,BJeLR viability,RN4220 kill,PrP UTR inh,Mtb hypoxia inh,Mtb hypoxia inh growth,ugtP null kill,Autofluor counter
COc1ccnc(Oc2ccc(F)cc2)c1C(=O)N/C=N/OCc1ccc(F)cc1,10,6.1,5,7,6,1,8186
COc1cccc(CNC(=O)CCC2CCCN(C(=O)c3cscn3)C2)c1 (stereo not given),-7,2.5,-28,2,-6,-1,5358
C[C@H](N)c1nnc(SCc2c(Cl)cccc2Cl)o1,-3,1.4,-14,-3,-16,5,9009
C[C@H](NC(=O)c1ccccc1)C(=O)N1CCN(c2ccccc2)CC1,-13,3.6,-16,15,13,6,5392
Oc1ccc(Nc2nnc(-c3ccc(O)cc3)c3ccccc23)cc1,4,3.2,-28,0,5,10,4231
CN1CCN(S(=O)(=O)c2ccc(N3CCN(c4ccc(O)cc4)CC3)c([N+](=O)[O-])c2)CC1,15,3.3,-6,1,0,7,4523
c1csc(-c2nc3c4ccccc4c4ccccc4c3[nH]2)c1,2,81,0,3,-2,90*,8595
COCCCn1c(SCc2ccccc2)nc2cc(OC)c(OC)cc2c1=N,-1,12,-17,-15,5,-13,9468
CCCn1c(SCC(=O)NC2CCCC2)nnc1-c1ccccn1,3,5.2,2,13,-3,5,5462
CCOC(=O)C1CCN(c2c(NC3CCCCCCC3)c(=O)c2=O)CC1,-4,3.0,-9,5,6,11,4303
CCOC(=O)c1[nH]c(C)c(CC(C)C)c1C,8,3.6,-13,4,12,11,3190
COc1ccc(Cl)cc1NC(=O)NCC1CCN(Cc2ccccc2F)CC1,4,2.1,-10,-9,4,11,3761
CCN(CC(=O)NCc1ccc(F)cc1)C(=O)/C=C/c1cc(OC)ccc1OC,-18,2.5,-7,6,3,-2,3424
CC(=O)CC(c1ccc([N+](=O)[O-])cc1)c1c(O)c2ccccc2oc1=O (stereo not given),5,7.2,-13,4,-1,4,4404
CCOC(=O)Cn1nc(C)cc1NC(=O)c1ccncc1,-2,0.5,-19,2,-4,2,5376

# The closing 3 records of the part above lead into the next.
SMILES,BJeLR viability,RN4220 kill,PrP UTR inh,Mtb hypoxia inh,Mtb hypoxia inh growth,ugtP null kill,Autofluor counter
CCN(CC(=O)NCc1ccc(F)cc1)C(=O)/C=C/c1cc(OC)ccc1OC,-18,2.5,-7,6,3,-2,3424
CC(=O)CC(c1ccc([N+](=O)[O-])cc1)c1c(O)c2ccccc2oc1=O (stereo not given),5,7.2,-13,4,-1,4,4404
CCOC(=O)Cn1nc(C)cc1NC(=O)c1ccncc1,-2,0.5,-19,2,-4,2,5376
O=c1cc(C(F)(F)F)nc(-n2[nH]c3c(c2=O)CCCC3)[nH]1,11,21,-2,-9,10,-1,6615
Cc1c(C)c2ccc(OCC(=O)N(C)C)c(C)c2oc1=O,13,4.5,-13,·,·,3,4965
N#CCCN(C(=O)CCl)c1cccc(Cl)c1,4,7.9,-10,·,·,7,4268
N/C(=N\c1nc(CSc2nnnn2-c2ccccc2)cc(=O)[nH]1)Nc1ccccc1,8,3.8,·,0,6,-1,·
Cc1cc(C)c(S(=O)(=O)Nc2cccc(S(=O)(=O)NC3=NCCC3)c2)c(C)c1,-5,7.0,-21,11,14,7,4885
COc1ccc(NC(=O)c2cc(-c3ccccc3Cl)no2)cc1,-9,3.8,-21,2,6,4,2319
CC1(C)Cc2nc3oc4c(=O)n(CC(=O)Nc5cccc(Cl)c5)cnc4c3cc2CO1,8,0.8,-17,3,1,-7,3143
Cc1ccc(F)cc1NC(=O)c1cnccn1,-2,-2.8,-29,-1,-9,1,4932
COc1cc2ccccc2cc1C(=O)N(CCN(C)C)c1nc2c(OC)ccc(OC)c2s1,-4,-10,-14,-8,21,-30,5886
COc1ccc(-c2csc(NC(=O)c3ccccc3C(=O)O)n2)cc1,-4,2.6,-25,-13,3,2,2525
COc1ccc(OC)c2c1cc(C(=O)N[C@H](C(=O)N1CCC(C(=O)O)CC1)C(C)C)n2C,2,1.9,-13,-1,-5,4,3254
C=CCn1c(-c2cccc(OC)c2OC)n[nH]c1=S,3,0.2,-20,-1,-4,2,4002
COc1ccccc1CNC(=O)CCn1c(=O)oc2ccccc21,-6,-5.9,-14,5,4,4,6545
COc1ccc(OCc2nnc3n2N=C(c2ccc(OC)cc2)CS3)cc1,3,10,-4,·,·,11,6230
O=S(=O)(Nc1ccccc1Cl)c1cc(NC(=S)NCCN2CCOCC2)ccc1Cl,2,6.5,-22,2,1,2,2992
COC(=O)c1ccc(COC(=O)CNC(=O)c2cccs2)cc1,-8,6.7,1,10,1,14,4325
C[C@]12C(=O)N(c3ccc(C(F)(F)F)cc3)C(=O)N1[C@H]1c3ccccc3OC[C@@H]1[C@H]2c1ccccc1,·,-16,-21,5,6,-15,2808
COc1cc(OC)cc(N(C(=O)CNC(=O)c2cccs2)C(C(=O)NCC2CCCO2)c2ccc(OC)c(OC)c2)c1 (stereo not given),-3,4.7,-20,4,3,2,4344
C/C(=N\Nc1nccnc1Cl)c1ccc(O)cc1,-5,·,-33,·,·,·,3768
COP(=O)(/C=C(\Cl)c1ccccc1)/C=C(\Cl)c1ccccc1,4,18,-7,8,0,10,3879
N=c1c(C(=O)NCC2CCCO2)cc2c(=O)n3ccccc3nc2n1Cc1ccco1 (stereo not given),4,2.6,-20,13,3,-1,4779
CSc1nnc(NC(=O)c2ccc(S(=O)(=O)N(C)C)cc2)s1,-1,-0.4,-30,5,16,-2,2129
O=C(CSc1nc2ccccc2[nH]1)Nc1cccc(S(=O)(=O)N2CCOCC2)c1,4,4.7,·,5,1,11,3190
